KCNQ2 inh – KCNQ2 channel blockers in CHO-K1 cells – cell-based, FluxOR thallium flux, B-score, primary screen (AID 2156); 20 min; stronger effect = lower value; only compounds with negative scores are shown here; some inactives read as strong as hits; B-score at 10 µM; 310,000 compounds, 1.1% hits;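 active = fluorescence ratio B-score at most minus 3 library SDs, with starting brightness B-score within 2 library SDs, cut at about -5.5 in these data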
Target sequence (O88943 whole entry, looked up): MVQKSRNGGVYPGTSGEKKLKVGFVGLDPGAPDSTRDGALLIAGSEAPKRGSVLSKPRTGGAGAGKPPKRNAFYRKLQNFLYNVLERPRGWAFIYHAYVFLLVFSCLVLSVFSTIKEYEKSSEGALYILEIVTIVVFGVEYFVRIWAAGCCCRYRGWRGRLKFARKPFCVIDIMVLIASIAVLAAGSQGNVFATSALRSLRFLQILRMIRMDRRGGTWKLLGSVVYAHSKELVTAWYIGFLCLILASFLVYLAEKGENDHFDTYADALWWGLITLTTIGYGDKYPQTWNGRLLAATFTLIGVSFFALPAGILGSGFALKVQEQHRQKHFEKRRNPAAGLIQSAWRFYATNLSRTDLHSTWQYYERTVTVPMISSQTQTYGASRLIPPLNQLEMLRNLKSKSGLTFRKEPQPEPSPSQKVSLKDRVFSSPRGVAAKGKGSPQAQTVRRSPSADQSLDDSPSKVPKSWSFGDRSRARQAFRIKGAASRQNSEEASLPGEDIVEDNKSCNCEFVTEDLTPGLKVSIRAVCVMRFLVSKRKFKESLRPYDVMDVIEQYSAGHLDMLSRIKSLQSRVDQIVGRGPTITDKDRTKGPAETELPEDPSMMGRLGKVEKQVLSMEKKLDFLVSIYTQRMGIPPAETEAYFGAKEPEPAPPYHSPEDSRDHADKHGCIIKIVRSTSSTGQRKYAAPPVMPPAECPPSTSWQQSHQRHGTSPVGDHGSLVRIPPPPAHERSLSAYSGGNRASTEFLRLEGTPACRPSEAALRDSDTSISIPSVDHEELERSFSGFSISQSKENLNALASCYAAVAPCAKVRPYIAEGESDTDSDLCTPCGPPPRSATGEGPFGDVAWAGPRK
KCNQ2 inh baseline – further read-out of KCNQ2 inh, marked with its call; B-score; measured here: initial fluorescence intensity artifact check;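 brightness before thallium and not channel activity; 0 = typical well and far values either way flag optical interference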
An asterisk follows results filed as active; & = joins results of further samples. These rows are one share of the data (hit frequency here may not be typical).

Cc1cc([N+](=O)[O-])c2ccccc2[n+]1[O-] was read as KCNQ2 inh inactive and KCNQ2 inh baseline -0.76.
Screening CCOC(=O)C1(CCc2ccccc2)CCN(Cc2cccc3c2OCO3)CC1 returned KCNQ2 inh inactive and KCNQ2 inh baseline -0.25.
For CCOc1ccc(-n2c(O)c(C=NCCN3CCNCC3)c(=O)[nH]c2=O)cc1 the results were KCNQ2 inh inactive and KCNQ2 inh baseline -1.1.
`CCN1C(=O)C(=Cc2ccc(C)s2)C(=O)N(CC)C1=S` gave KCNQ2 inh inactive and KCNQ2 inh baseline -1.42.
Screening CCCCn1c(O)c(/C(CC)=N/N2CCCCC2c2cccnc2)c(=O)[nH]c1=S (stereo not given) returned KCNQ2 inh inactive and KCNQ2 inh baseline 0.59.
For COP(=O)(OC)C(NC(=O)c1ccc(C)cc1)C(Cl)(Cl)Cl (stereo not given) the results were KCNQ2 inh inactive and KCNQ2 inh baseline -0.28.
Screening O=c1[nH]c(=O)n(Cc2ccco2)c(O)c1/C=N/N1CCCCC1 returned KCNQ2 inh inactive and KCNQ2 inh baseline -2.39.
Screening Cc1nnc2ccc(N3CCN(C)CC3)nn12 returned KCNQ2 inh inactive and KCNQ2 inh baseline -0.28.
For O=C1NC(=O)N(c2ccc(Cl)cc2)C(=O)/C1=C/c1coc2ccc(O)cc2c1=O the results were KCNQ2 inh inactive and KCNQ2 inh baseline -1.34.
For CCC(COC(=O)c1cc(OC)c(OC)c(OC)c1)(c1ccccc1)N(C)C (stereo not given) the results were KCNQ2 inh inactive and KCNQ2 inh baseline -1.11&0.08.
For Clc1cccc(N2CCNCC2)c1 the results were KCNQ2 inh inactive and KCNQ2 inh baseline 2.39.
`COc1ccc(-n2c(-c3ccccc3)nc3ccccc3c2=O)cc1` gave KCNQ2 inh inactive and KCNQ2 inh baseline -1.14.
CCC1(c2ccccc2)C(=O)N(COC)C(=O)N(COC)C1=O was read as KCNQ2 inh inactive and KCNQ2 inh baseline -0.62.
`COc1cccc(NC(=O)[C@@H](NC(=O)N2C[C@H]3C[C@@H](C2)c2cccc(=O)n2C3)C(C)C)c1` gave KCNQ2 inh inactive and KCNQ2 inh baseline -0.02.
For O=C(Cc1c(Cl)cccc1Cl)N1CCN(Cc2ccccc2)CC1 the results were KCNQ2 inh inactive and KCNQ2 inh baseline 0.1.

The last 2 compounds of the section above come first, to join the parts.
`COc1cccc(NC(=O)[C@@H](NC(=O)N2C[C@H]3C[C@@H](C2)c2cccc(=O)n2C3)C(C)C)c1` gave KCNQ2 inh inactive and KCNQ2 inh baseline -0.02.
For O=C(Cc1c(Cl)cccc1Cl)N1CCN(Cc2ccccc2)CC1 the results were KCNQ2 inh inactive and KCNQ2 inh baseline 0.1.
O=C1NC(=O)C(=Cc2ccc(Oc3ccc([N+](=O)[O-])cc3)cc2)C(=O)N1 was read as KCNQ2 inh inactive and KCNQ2 inh baseline 2.94.
For COc1ccc(CCn2c(O)c(/C=N/N3CCOCC3)c(=O)[nH]c2=O)cc1OC the results were KCNQ2 inh inactive and KCNQ2 inh baseline -2.08.
Screening CCC(=NCCCN(CC)CC)c1c(O)n(-c2ccccc2)c(=O)[nH]c1=O returned KCNQ2 inh inactive and KCNQ2 inh baseline 3.06.
Screening CC(C)(C)c1nc(N2CCN(C(=O)c3ccco3)CC2)c2nnn(Cc3ccccc3Cl)c2n1 returned KCNQ2 inh inactive and KCNQ2 inh baseline 0.94.
`Cc1c(P(=S)(c2ccccc2)c2ccccc2)[n+]2ccccc2n1C` gave KCNQ2 inh inactive and KCNQ2 inh baseline 0.01.
`COC(=O)C1=C(c2cccc(OC)c2OC)C[C@@H]2CC[C@H]1N2C(=O)NCc1cccc2ccccc12` gave KCNQ2 inh -6.83* and KCNQ2 inh baseline -1.71*.
Nc1ccc(S(=O)(=O)N2CCCCC2c2cccnc2)cc1 (stereo not given) was read as KCNQ2 inh inactive and KCNQ2 inh baseline 1.7.
Screening CN1/C(=C\C=C2C(=O)NC(=O)NC2=O)C(C)(C)c2ccccc21 returned KCNQ2 inh inactive and KCNQ2 inh baseline 9.42.
CCc1ccc(N2C(=O)NC(=O)/C(=C/c3ccsc3)C2=O)cc1 was read as KCNQ2 inh inactive and KCNQ2 inh baseline -0.17.
For C1=C(c2c[nH]c3ccccc23)CCNC1 the results were KCNQ2 inh inactive and KCNQ2 inh baseline 4.19.
`CN(C)P1(N(C)C)=Nc2c(c(N)nn2C)C(c2ccccc2)=N1` gave KCNQ2 inh inactive and KCNQ2 inh baseline 2.66.
Screening CCOC(C(=O)OCCCN(CC)CC)(c1ccccc1)c1ccccc1 returned KCNQ2 inh inactive and KCNQ2 inh baseline -0.86.
O=S(=O)(NC1CN2CCC1CC2)c1ccc(Cl)cc1 (stereo not given) was read as KCNQ2 inh inactive and KCNQ2 inh baseline -1.92.
For Cc1c(N=Nc2c(O)n(C)c(=O)n(C)c2=O)c(=O)n(-c2ccccc2)n1C the results were KCNQ2 inh inactive and KCNQ2 inh baseline 1.44.
For O=C(CCC(=O)N1CC2C[C@@H](C1)Cn1c2cccc1=O)NCCc1ccccc1F the results were KCNQ2 inh inactive and KCNQ2 inh baseline 0.71.

Arranged by molar mass (ascending): some entries from above.
Cc1cc([N+](=O)[O-])c2ccccc2[n+]1[O-] was read as KCNQ2 inh inactive and KCNQ2 inh baseline -0.76.
For COP(=O)(OC)C(NC(=O)c1ccc(C)cc1)C(Cl)(Cl)Cl (stereo not given) the results were KCNQ2 inh inactive and KCNQ2 inh baseline -0.28.
Screening CCOC(=O)C1(CCc2ccccc2)CCN(Cc2cccc3c2OCO3)CC1 returned KCNQ2 inh inactive and KCNQ2 inh baseline -0.25.

Random excerpt: 2 entries already listed
For COc1ccc(CCn2c(O)c(/C=N/N3CCOCC3)c(=O)[nH]c2=O)cc1OC the results were KCNQ2 inh inactive and KCNQ2 inh baseline -2.08.
For O=C(CCC(=O)N1CC2C[C@@H](C1)Cn1c2cccc1=O)NCCc1ccccc1F the results were KCNQ2 inh inactive and KCNQ2 inh baseline 0.71.

Going on with the list.
Screening O=C(Cc1ccccc1)N1CCN(Cc2cccc(Cl)c2)CC1 returned KCNQ2 inh inactive and KCNQ2 inh baseline 0.95.
For Cc1cc(S(=O)(=O)NCC(C)C)ccc1OCC(=O)N1CCN(Cc2ccccc2)CC1 the results were KCNQ2 inh inactive and KCNQ2 inh baseline 2.96.
`COc1ccc(CCN(C)Cc2c(F)cccc2F)cc1OC` gave KCNQ2 inh inactive and KCNQ2 inh baseline 3.17.
`C=CCn1c(O)c(C(CC)=Nc2ccc(NC(C)=O)cc2)c(=O)[nH]c1=O` gave KCNQ2 inh inactive and KCNQ2 inh baseline 1.59.
CCn1cc(C=C2C(=O)NC(=O)NC2=O)c2ccccc21 was read as KCNQ2 inh inactive and KCNQ2 inh baseline 1.56.
`COc1cc(/C=C(/C)[N+](=O)[O-])ccc1OCc1ccccc1Cl` gave KCNQ2 inh inactive and KCNQ2 inh baseline 0.16.
`Cc1cc2c(C(F)(F)F)cc(=O)oc2c2c1NCCC2` gave KCNQ2 inh inactive and KCNQ2 inh baseline 7.09.
`OC(CN1CCCCC1)c1c[nH]c2ccccc12` (stereo not given) gave KCNQ2 inh inactive and KCNQ2 inh baseline 1.03.
`O=S(=O)(c1ccccc1)N1CC1c1ccccc1` (stereo not given) gave KCNQ2 inh inactive and KCNQ2 inh baseline 1.31.
O=C1NC(=O)C(CCc2ccncc2)(Cc2ccc([N+](=O)[O-])cc2)C(=O)N1 was read as KCNQ2 inh inactive and KCNQ2 inh baseline 0.82.

High-throughput results deposited in PubChem by Johns Hopkins Ion Channel Center.
